Menin-MLL FL inh – menin-MLL binding inhibition, fluorescein peptide; FP activity change, % at 61.4 µM; 290,000 tested, under 10 active; Fluorescence polarization, fluorescein-MLL peptide displacement from menin; inconclusive = falling polarisation curve, or a change in total fluorescence; inactive = total fluorescence flat and polarisation flat or rising; no compound was filed as active; the % refers to the polarisation; negative = inhibition;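 note: % of control where 0% means no effect; inhibitors lower the polarisation; unlabelled MLL peptide was the positive control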
Sfp PPTase inh – inhibitors of Bacillus subtilis Sfp phosphopantetheinyl transferase; Biochemical Sfp PPTase activity, qHTS; AID 1490; Potency, µM, without a hit: max response, negative = inhibition, hits mostly inhibitors; Q9F4F7; actives 3.5% (n = 310,000); active = well fitted inhibition curve with a large enough effect; inconclusive = small, poorly fitted or top-dose-only effect, or another doubt; inactive = no such curve, though single readings can be large or run the other way;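 note: the enzyme is Sfp with the accession as filed and its product quenches rhodamine fluorescence; potency is the fitted concentration of half-maximal effect; 0% = enzyme reaction without inhibitor and -100% = no enzyme wells; top concentration of the series not given in the record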
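Fluorescence-quenching assay with 15 nM Sfp, 5 uM rhodamine-CoA and 12.5 uM BHQ-2-labelled ybbR peptide in pH 7.6 Hepes/MgCl2 buffer. Enzyme was pre-incubated with compound for 15 min at room temperature. Rate was taken from the 30-min fluorescence change (525/598 nm).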
ClpP mod – qHTS Assay for Activators of ClpP; purified B. subtilis ClpP, FRET peptide cleavage, 20 min; Potency, µM (top dose mostly 57.5 µM), without a hit: at the highest dose activity change, negative = active; actives 1.9% (n = 340,000); active = well fitted falling curve with a large enough effect; inconclusive = small, poorly fitted or top-dose-only effect; inactive = no such curve, though single readings can be large or run the other way; note: potency is the fitted concentration of half-maximal effect; the source files actives as falling curves though it sought activators and does not explain the sign; nearly all actives have a fitted effect of over 65% in size; many hits overshoot -100%
Target sequence (P80244 whole entry, looked up): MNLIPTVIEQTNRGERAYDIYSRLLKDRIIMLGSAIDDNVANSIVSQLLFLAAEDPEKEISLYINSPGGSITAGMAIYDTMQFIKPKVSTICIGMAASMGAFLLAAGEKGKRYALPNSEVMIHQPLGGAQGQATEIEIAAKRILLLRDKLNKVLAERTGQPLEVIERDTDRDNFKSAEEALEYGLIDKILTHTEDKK
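Buffer: 100 mM Tris/HCl pH8, 100 mM KCl, 0.05% low protease BSA, 2.5% glycerol, 0.01% Tween-20. ClpP 10 microg/mL final; 20 min RT; delta FRET normalized to ADEP and DMSO controls.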
gsp antagonist – antagonists of gsp mutant (McCune-Albright syndrome); actives 0.4% (n = 340,000); Potency, µM (doses to about 76.9 µM), for the others: at the highest dose activity change, negative = inhibition, hits mostly inhibitors; gsp-mutant cells, cAMP HTRF, 30 min; control for the full effect not named in the record; active = falling curve of any shape with a large fitted effect; inconclusive = falling curve, mostly with a smaller effect; inactive = flat or rising curve; cell line not stated here;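 note: intracellular cAMP measured with PDE inhibitor Ro 20-1724 present during compound exposure; potency is the fitted concentration of half-maximal effect; % is set by controls: 0 for no effect and ±100 for the full control effect; nearly all actives have a fitted effect of over 65% in size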
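G418-selected cells were plated in DMEM/10% FBS for 16-24 h at 37C, then treated with compounds plus the PDE inhibitor […] (300 uM solution added) for 30 min at 37C. Intracellular cAMP was measured by HTRF after 30 min lysis at room temperature.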
TRPV1 potentiator – enhances activation of the human vanilloid receptor TRPV1; potentiation, % at 8.33 µM; AID 540277; TRPV1-expressing cells, Fluo-8 calcium influx, capsaicin EC20 potentiation; host cell line not named in the record; control for the full effect not named in the record; actives 0.02% (n = 320,000); active means potentiation above 80%; inconclusive means 30% to 80%; inactive means below 30%; note: 0% is about no effect
Target sequence (Q8NER1 whole entry, looked up): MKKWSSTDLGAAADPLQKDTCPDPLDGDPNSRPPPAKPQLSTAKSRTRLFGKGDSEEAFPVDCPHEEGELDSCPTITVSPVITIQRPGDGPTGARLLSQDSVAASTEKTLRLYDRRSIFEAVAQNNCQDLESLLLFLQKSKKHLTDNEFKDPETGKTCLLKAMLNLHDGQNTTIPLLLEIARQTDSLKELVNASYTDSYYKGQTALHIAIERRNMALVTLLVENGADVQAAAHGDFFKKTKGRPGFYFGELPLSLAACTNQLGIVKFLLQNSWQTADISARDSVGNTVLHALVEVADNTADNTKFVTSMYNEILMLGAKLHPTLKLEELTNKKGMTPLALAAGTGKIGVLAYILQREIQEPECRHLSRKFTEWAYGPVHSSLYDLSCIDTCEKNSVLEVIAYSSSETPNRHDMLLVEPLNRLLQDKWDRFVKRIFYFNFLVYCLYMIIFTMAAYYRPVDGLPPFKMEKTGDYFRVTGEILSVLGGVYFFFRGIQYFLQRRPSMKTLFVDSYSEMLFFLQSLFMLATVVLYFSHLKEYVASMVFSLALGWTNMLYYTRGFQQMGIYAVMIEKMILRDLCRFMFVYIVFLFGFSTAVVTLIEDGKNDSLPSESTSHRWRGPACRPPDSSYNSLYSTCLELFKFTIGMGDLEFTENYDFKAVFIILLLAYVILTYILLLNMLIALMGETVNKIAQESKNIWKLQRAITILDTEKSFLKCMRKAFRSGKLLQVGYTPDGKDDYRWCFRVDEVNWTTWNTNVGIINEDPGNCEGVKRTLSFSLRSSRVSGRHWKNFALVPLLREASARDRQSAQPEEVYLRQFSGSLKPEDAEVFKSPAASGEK
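Cells expressing TRPV1 were dye-loaded with Fluo-8 and read kinetically: 10 s baseline, 3 min after compound (agonist portion), then 2 min after EC20 capsaicin (allosteric enhancer portion). Calcium-bound dye fluorescence at 480/520 nm.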
D2 PAM – potentiates the human D2 dopamine receptor allosterically; P14416; DiscoveRx D2 beta-arrestin cells, luminescence, 90 min; 100% = 57 uM dopamine signal; actives 0.23% (n = 360,000); potentiation, % (concentration not given with the values); AID 624464; active = potentiation of 50% or more; inconclusive = 30% to 50%; inactive = 30% or less;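 note: compound concentration not given in the record; tested on top of an EC20 dose of dopamine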
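PathHunter beta-arrestin assay in DiscoveRx D2 cells. Compounds were added with an EC20 of dopamine (50 nM final) for 90 min at 37 deg C. Luminescence was read 1 h after detection reagent, with 57 uM dopamine as the EC100 control.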
gsp agonist – gsp mutant agonism. gsp mutant cells, cAMP HTRF, 30 min; control for the full effect not named in the record. Potency, µM (top dose mostly 76.9 µM), inactives show top-dose activation (cAMP increase), hits mostly activators. actives 0.13% (n = 340,000). AID 624287; active = well fitted activation curve with a large enough effect; inconclusive = small, poorly fitted or top-dose-only effect, or another doubt; inactive = no such curve, though single readings can be large or run the other way; cell line not stated here;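 note: phosphodiesterase inhibitor Ro 20-1724 added with compounds to block cAMP breakdown; potency is the fitted concentration of half-maximal effect; nearly all actives have a fitted effect of over 60% in size; about a fifth of the inactives were tested at one dose only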
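Cells stably selected in G418 were plated at 2000/well, grown 16-24 hr, then given compounds in DMSO with the PDE inhibitor […] (300 uM solution added) for 30 min at 37C; cAMP was read by HTRF.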
Starred values were filed as active, the others as inactive; ? = inconclusive; . = no result given; & = joins results of further samples; [ ] = remark or other dose.

SMILES	Menin-MLL FL inh	Sfp PPTase inh	ClpP mod	gsp antagonist	TRPV1 potentiator	D2 PAM	gsp agonist
COc1cc2c(cc1OC)C(c1cccc(Cl)c1Cl)CC(=O)N2 (stereo not given)	-0.2	4%	1.8%	-12%	8	2	0%
CC(=O)n1cc([C@@H]2C=C(C(=O)N3CCOCC3)O[C@H](OCCCCO)C2)c2ccccc21	9.1	-7%	-1.0%	-3%	?	-1	?
Cn1c(CN2CCOCC2)nc2cc(NC(=O)COc3ccccc3)ccc21	-6.2	22%	.	-23%	6	-8	8%[15.4 µM]
C[C@@H]1CN([C@H](C)CO)C(=O)CCCn2cc(nn2)CO[C@H]1CN(C)S(=O)(=O)c1ccc2c(c1)OCCCO2	.	.	-2.2%	.	.	-2	-25%
CCOC(=O)c1c(NC(=O)CSc2nnc3c(n2)[nH]c2ccc(F)cc23)sc(C(C)=O)c1C	4.3	17%	-3.3%	-14%	9	5	22%
Cc1cc(C)n(-c2nc(N(C)C)nc(N(C)C)n2)n1	0.0	14%	-2.1%&-1.1%	5%	19	-8	21%
CC(C)(C)OC(=O)N/N=C/c1cccc([N+](=O)[O-])c1	-0.8	-4%	-2.9%	4%	30	-10	-80%[inhibitor]
CCCCCCCCCCC[N+](C)(C)CC/C=C1/c2ccccc2Sc2ccc(Cl)cc21	-12	40µM*	-5.3%	-5%	-17	-53	-43%[inhibitor]
O=C(NCc1ccc(Cl)c(Cl)c1)c1cccnc1	-0.5	17%	0.9%	10%	-11	-23	15%
Clc1ccccc1CN1CCN(CCCc2ccccc2)CC1	0.0	79µM*	.	16%	-13	-21	-7%[15.4 µM]
CSc1ccccc1NC(=O)COc1ccc(Cl)cc1C	7.2	-1%	0.5%	-16%	4	-16	4%
CC(=O)c1c(C)[nH]c2ccccc2c1=O	-2.5	2%	-2.7%	1%	?	-6	-38%[inhibitor]
Cc1ccc2nc(CSc3nnc(-c4ccco4)n3-c3ccccc3)cc(=O)n2c1	.	.	-28%	-2%	.	-6	?
COc1cc2[nH]c(=S)n(Cc3ccc(C)cc3)c(=O)c2cc1OC	0.8	56µM*	-0.2%	4%	-8	-3	-4%
Cc1ccc(NC(=O)CN2C(=O)NC(Cc3c[nH]c4ccccc34)C2=O)cc1S(=O)(=O)N1CCCCC1 (stereo not given)	5.6	4%	5.5%	-7%	11	-4	14%
Cc1ccccc1N(CC(=O)NCCc1ccccc1)C(=O)CCC(=O)Nc1ccccn1	-4.8	6%	.	-11%	1	-3	-21%
O=C(O)CCC(=O)Nc1ccc(F)cc1	-6.6	19%	0.1%	-9%	9	9	-22%
Cc1c(Br)c([N+](=O)[O-])nn1CC(=O)NCc1ccco1	4.6	7%	35µM*	7%	-3	-9	33%[15.4 µM]
O=c1[nH]c(=O)n([C@@H]2O[C@H](CO)[C@@H](O)[C@H]2O)cc1F	?	16%	-1.8%	.	.	.	.
c1ccc(Cc2cc(-c3ccccc3)on2)cc1	4.5	20%	1.3%	10%	13	21	?
Cn1nc(C(=O)OCc2ccc(Br)cc2F)c2ccccc2c1=O	5.0	16%	-3.0%	-14%	6	-1	-25%
COc1ccc(NC(=O)c2ccccc2N(Cc2ccccc2)S(C)(=O)=O)c(OC)c1	0.3	12%	0.5%	-6%	2	-12	-2%
Cc1nc2cc(NCc3cc([N+](=O)[O-])ccc3O)ccc2n1Cc1ccccc1	-0.6	-17%	.	0%	-1	-3	-39%[inhibitor]
CC12CC3CC(C)(C1)CC(C(=O)NCc1ccncc1)(C3)C2	-1.4	0%	1.0%	-6%	?	0	-3%
O=C(NCCCN1CCOCC1)c1ccc(CS(=O)(=O)c2c(Cl)cccc2Cl)o1	-2.2	12%	-0.1%	9%	0	-1	-22%
Cc1ccnc2ccc(P(=O)(c3ccccc3)c3ccccc3)cc12	-7.9	15%	.	.	-5	.	.
Cc1ccc(OCC(=O)Nc2ccc3c4c(cccc24)CC3)c(C)c1	6.7	3%	.	3%	-1	-10	9%[15.4 µM]
Cc1cccc2nc(-c3cccc(NC(=O)c4ccc(Cl)cc4)c3)cn12	0.3	9%	38%	-21%	-1	-5	?
COc1ccc(NC(=O)CSc2nc3c(c(=O)n2C)SCC3)cc1OC	.	17%	-3.3%	-1%	-2	6	6%[15.4 µM]
C/C(=N\NC(=O)CNc1cccc2ccccc12)c1ccc(Br)s1	-1.3	15%	.	-7%	-4	4	16%
O=C(NCCCCc1ccccc1)C1CC(c2ccc([N+](=O)[O-])cc2)=NO1 (stereo not given)	-3.0	0%	-2.0%	-5%	-7	-5	.
CC(C)N1CCCC(CNC(=O)CCc2nnc(CCCCc3ccccc3)o2)C1 (stereo not given)	-3.0	23%	.	4%	2	-11	?
CC(C)CCNC(=O)Cn1c(=O)oc2cc(S(=O)(=O)N3CCc4ccccc43)ccc21	5.7	13%	-1.0%	-5%	.	-6	20%
CCOC(CCn1c(SCC(=O)NC2CCCC2)nc2ccccc2c1=O)OCC	.	7%	0.9%	6%	27	-12	-5%[15.4 µM]
NCC1CCN(c2nc3ccccc3c3c2CCCC3)CC1	.	.	-20%	2%	.	-16	30%
C=CCn1c(Oc2ccccc2F)nc2c1c(=O)n(C)c(=O)n2C	-5.5	1%	-1.3%	4%	-2	2	-1%

Two compounds picked at random from those above:
SMILES	Menin-MLL FL inh	Sfp PPTase inh	ClpP mod	gsp antagonist	TRPV1 potentiator	D2 PAM	gsp agonist
Cc1ccc(OCC(=O)Nc2ccc3c4c(cccc24)CC3)c(C)c1	6.7	3%	.	3%	-1	-10	9%[15.4 µM]
COc1ccc(NC(=O)CSc2nc3c(c(=O)n2C)SCC3)cc1OC	.	17%	-3.3%	-1%	-2	6	6%[15.4 µM]

(listing goes on)
SMILES	Menin-MLL FL inh	Sfp PPTase inh	ClpP mod	gsp antagonist	TRPV1 potentiator	D2 PAM	gsp agonist
O=C(O)Cc1ccc2c(c1)N(S(=O)(=O)c1cccc(C(F)(F)F)c1)CC(C(=O)O)O2 (stereo not given)	3.6	8%	-15%	7%	-23	-3	-12%
CSc1ccccc1NC(=O)CN(c1ccccc1Br)S(C)(=O)=O	2.2	9%	0.8%	1%	2	-12	-2%
CC(=O)c1cccc(NC(=O)C(C)OC(=O)c2cccc(S(=O)(=O)N3CCN(C)CC3)c2)c1 (stereo not given)	.	.	-0.4%	5%	2	-6	?
COc1ccc(NC(=S)N/N=C/c2cccn2Cc2ccc(F)cc2Cl)cc1	2.8	-6%	.	-12%	-29	-5	0%[15.4 µM]
NNC(=O)C(Cc1ccc(O)cc1)N1Cc2ccccc2C1=O (stereo not given)	4.1	18%	-0.8%	6%	4	0	12%
CCC1Oc2ccc(C)cc2N(CC(=O)N(Cc2ccncc2)Cc2ccco2)C1=O (stereo not given)	4.0	?	-3.6%	-23%	-19	-4	7%
COc1ccc(-c2cc(C(=O)Nc3c(C)n(C)n(-c4ccccc4)c3=O)c3ccccc3n2)cc1	-0.1	13%	.	?	-1	12	16%
Cc1nn(C(C)C(=O)N2CCc3ccccc32)c(C)c1[N+](=O)[O-] (stereo not given)	4.9	20%	0.2%	-3%	-1	8	?
Cc1noc(NS(=O)(=O)c2ccc(NC(=O)C(CC(C)C)N3C(=O)c4ccccc4C3=O)cc2)c1C (stereo not given)	6.8	12%	1.2%	-9%	14	-10	-18%
CCc1nc(SCC(=O)N2CCCC2)c2ccccc2n1	-1.0	7%	-1.0%	3%	-3	-7	?
CCNS(=O)(=O)c1ccc(NS(=O)(=O)c2cc(C)ccc2C)cc1	4.4	-2%	-2.5%	8%[15.4 µM]	6	?	9%
CC(C)CN(C)Cc1c(C(=O)N2CCc3ccccc3C2)nc2ccc(Cl)cn12	-6.3	2%	-0.7%	-29%	-8	-12	-4%[15.4 µM]
COC(=O)c1ccc(NC(=O)C23CCC(C)(C(=O)O2)C3(C)C)cc1 (stereo not given)	-3.8	25%	-2.0%	-7%	-3	12	12%
Cc1nc(C(F)(F)F)c(C(=O)NC(=O)Nc2ccc(OC(F)(F)F)cc2)s1	1.6	7%	-1.5%	-4%	-17	-2	-24%
Cc1cnn2c(C3CC3)ccnc12	2.0	5%	.	5%	?	-14	0%[15.4 µM]
O=C(O)c1cc([N+](=O)[O-])cc2c1nnn2O	0.1	-3%	.	-29%	-4	-27	-45%[inhibitor]
CC[C@]12c3[nH]c4cc(-c5ccco5)ccc4c3CCN1C(=O)[C@@H](CC(=O)NCCCn1ccnc1)C[C@@H]2C(=O)N1CCN(C(=O)c2ccco2)CC1	.	.	?	-6%	.	-4	.
O=C(OCc1cccs1)c1ccccc1NS(=O)(=O)c1ccc2c(c1)OCCO2	-5.0	-1%	?	-4%	19	1	0%
O=C(NCCn1cc(SCc2ccccc2)c2ccccc21)c1ccccc1F	1.8	1%	-3.2%	?	1	-5	-118%[inhibitor]
CCc1c(C)nc2cc(-c3ccc(OC)c(OC)c3)nn2c1N1CCC(C)CC1	0.2	4%	-6.0%	-3%	3	6	-22%
COc1cc(C(=S)N2CCOCC2)cc(OC)c1OC(=O)c1ccccc1Cl	.	.	0.7%	.	.	-1	-22%
Cc1ccc(S(=O)(=O)N2CCC(C(=O)Nc3ccc(S(=O)(=O)N4CCCC4)cc3)CC2)cc1	.	.	-4.5%	3%	9	-3	-6%
O=C(CSc1nncn1-c1cccnc1)N(c1ccccc1)c1ccccc1	-2.1	7%	.	1%	5	-6	-1%
COc1ccc(N=c2oc3cc(O)ccc3cc2C(=O)NCC2CCCO2)c(OC)c1 (stereo not given)	?	11%	25µM*	-7%	13	-14	-26%
CNc1nc(C)c([N+](=O)[O-])c(Nc2ccc(OC)cc2)n1	3.5	7%	1.0%	6%	-3	-7	1%[15.4 µM]
O=C(NCCCn1ccnc1)/C(=C\c1cccnc1)NC(=O)c1ccccc1Br	-0.9	2%	-2.6%	1%	-25	-2	0%
C=CCNC(=S)Nc1ccc(OC)c(S(=O)(=O)N2CCOCC2)c1	2.1	-6%	-1.6%	11%	-5	-4	-20%
COc1ccc(OC)c(-c2nc(C)sc2CC(=O)O)c1	2.2	-1%	-0.4%	8%	2	-4	-72%[inhibitor]
O=C(Nc1ccccc1)c1ccccc1OS(=O)(=O)c1ccccc1	-1.0	9%	-3.1%	3%	3	-2	-4%[15.4 µM]
O=C(CCN1C(=O)/C(=C/c2ccc(Cl)cc2)SC1=S)Nc1cccnc1	0.5	14%	.	3%	-10	-2	-3%

Screening results (PubChem BioAssay)
